PINK1 expr mod: A Quantitative High throughput Screen to Identify Chemical Modulators of PINK1 Expression. PINK1 immunofluorescence, high-content cytometry, 24 h. Potency, µM (titrated, usually from 76.6 µM), inactives show at the top dose activation (PINK1 increase), hits mostly activators. 410,000 tested, 0.2% active; active = well fitted activation curve with a large enough effect; inconclusive = small, poorly fitted or top-dose-only effect; inactive = flat fitted curve, though single readings scatter; cell line not stated here;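 note: potency is the fitted concentration of half-maximal effect; % of control where 0% means no effect; nearly all actives have a fitted effect of over 65% in size; a mitochondrial uncoupler was the plate control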
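Measures PINK1 amount and localization on or inside mitochondria by immunofluorescence. Stable cells get compounds at 5 concentrations for 24 hours before fixation and staining; CCCP controls included.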
gsp antagonist: qHTS for Antagonists of gsp, the Etiologic Mutation Responsible for Fibrous Dysplasia/McCune-Albright Syndrome: qHTS | gsp-mutant cells, cAMP HTRF, 30 min; control for the full effect not named in the record | Potency, µM (top dose mostly 76.9 µM), inactives show at the highest dose activity change, negative = inhibition, usual class: inhibitors | 340,000 tested, 0.4% active | AID 624288, 2012; active = falling curve of any shape with a large fitted effect; inconclusive = falling curve, mostly with a smaller effect; inactive = flat or rising curve; cell line not stated here;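 note: intracellular cAMP measured with PDE inhibitor Ro 20-1724 present during compound exposure; potency is the fitted concentration of half-maximal effect; % is set by controls: 0 for no effect and ±100 for the full control effect; nearly all actives have a fitted effect of over 65% in size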
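G418-selected cells were plated in DMEM/10% FBS for 16-24 h at 37C, then treated with compounds plus the PDE inhibitor […] (300 uM solution added) for 30 min at 37C. Intracellular cAMP was measured by HTRF after 30 min lysis at room temperature.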
gsp ag: qHTS for Agonist of gsp, the Etiologic Mutation Responsible for Fibrous Dysplasia/McCune-Albright Syndrome: qHTS; Potency, µM (series often up to 76.9 µM), inactives show at the top dose activation (cAMP increase), hits mostly activators; 340,000 tested, 0.13% active; gsp mutant cells, cAMP HTRF, 30 min; control for the full effect not named in the record; active = well fitted activation curve with a large enough effect; inconclusive = small, poorly fitted or top-dose-only effect, or another doubt; inactive = no such curve, though single readings can be large or run the other way; cell line not stated here;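 note: phosphodiesterase inhibitor Ro 20-1724 added with compounds to block cAMP breakdown; potency is the fitted concentration of half-maximal effect; nearly all actives have a fitted effect of over 60% in size; about a fifth of the inactives were tested at one dose only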
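Cells in DMEM/10% FBS with G418 were pretreated with compounds in DMSO plus […] (300 uM stock) for 30 min at 37C. cAMP was measured by HTRF (cAMP-d2 plus anti-cAMP antibody-K) after 30 min at room temperature.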
Menin-MLL FL inh: qHTS Assay for Inhibitors Targeting the Menin-MLL Interaction in MLL Related Leukemias: Competition With Fluorescein Labeled MLL-derived Peptide. 290,000 tested, under 10 active. Fluorescence polarization, fluorescein-MLL peptide displacement from menin. FP activity change, % at 61.4 µM; inconclusive = falling polarisation curve, or a change in total fluorescence; inactive = total fluorescence flat and polarisation flat or rising; no compound was filed as active; the % refers to the polarisation; negative = inhibition;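 note: % of control where 0% means no effect; inhibitors lower the polarisation; unlabelled MLL peptide was the positive control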
Sfp inh: qHTS Assay for Inhibitors of Bacillus subtilis Sfp phosphopantetheinyl transferase (PPTase) | 310,000 tested, 3.5% active | AID 1490, 2009 | Biochemical Sfp PPTase activity, qHTS | Potency, µM, for the others: max response, negative = inhibition, actives largely listed as inhibitors; active = well fitted inhibition curve with a large enough effect; inconclusive = small, poorly fitted or top-dose-only effect, or another doubt; inactive = no such curve, though single readings can be large or run the other way;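 note: the enzyme is Sfp with the accession as filed and its product quenches rhodamine fluorescence; potency is the fitted concentration of half-maximal effect; 0% = enzyme reaction without inhibitor and -100% = no enzyme wells; top concentration of the series not given in the record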
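After 15 min at room temperature with compound, 15 nM Sfp received 5 uM rhodamine-CoA plus 12.5 uM BHQ-2-ybbR (50 mM Hepes pH 7.6, 10 mM MgCl2). Rate came from the fluorescence difference over 30 min, ex 525/em 598 nm.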
D2 ag: Beta-Arrestin HTS for Positive Allosteric Modulators of the Human D2 Dopamine Receptor: Agonists | D(2) dopamine receptor (Homo sapiens), P14416 | DiscoveRx PathHunter D2 beta-arrestin, luminescence, 90 min; 100% = 57 uM dopamine signal | activation, % (test concentration not listed) | 360,000 tested, 0.084% active | AID 624465, 2012; in the data active = activation above about 40%; inconclusive = about 15% to 40%; inactive = below about 15%; note: compound concentration not given in the record; the text of the record calls up to 30% inactive
Target sequence (P14416 whole entry, looked up): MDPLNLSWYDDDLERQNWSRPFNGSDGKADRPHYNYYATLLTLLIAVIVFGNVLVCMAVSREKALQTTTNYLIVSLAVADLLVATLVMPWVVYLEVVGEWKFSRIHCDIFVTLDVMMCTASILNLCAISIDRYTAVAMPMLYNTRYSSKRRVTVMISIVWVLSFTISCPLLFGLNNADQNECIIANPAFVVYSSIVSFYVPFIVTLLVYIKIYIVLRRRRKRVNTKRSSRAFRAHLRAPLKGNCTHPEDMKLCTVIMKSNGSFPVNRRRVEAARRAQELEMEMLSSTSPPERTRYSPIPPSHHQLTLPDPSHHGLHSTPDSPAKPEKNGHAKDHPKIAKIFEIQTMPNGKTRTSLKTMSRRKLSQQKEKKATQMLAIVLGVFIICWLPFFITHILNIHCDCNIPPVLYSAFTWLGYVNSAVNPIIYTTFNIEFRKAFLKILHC
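DiscoveRx PathHunter D2 beta-arrestin cells (2,100/well) attached overnight, then compound-stimulated 90 min at 37 C in HBSS/10 mM HEPES/0.1% Tween-20 buffer; beta-galactosidase complementation read by luminescence after 1 h at ambient temperature. Dopamine 57 uM final (EC100) as control.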
ClpP mod: qHTS Assay for Activators of ClpP | AID 651965, 2013 | 340,000 tested, 1.9% active | purified B. subtilis ClpP, FRET peptide cleavage, 20 min | Potency, µM (top dose mostly 57.5 µM), inactives show at the top dose activity change, negative = active | ATP-dependent Clp protease proteolytic subunit (Bacillus subtilis (strain 168)), P80244; active = well fitted falling curve with a large enough effect; inconclusive = small, poorly fitted or top-dose-only effect; inactive = no such curve, though single readings can be large or run the other way; note: potency is the fitted concentration of half-maximal effect; the source files actives as falling curves though it sought activators and does not explain the sign; nearly all actives have a fitted effect of over 65% in size; many hits overshoot -100%
Target sequence (P80244 whole entry, looked up): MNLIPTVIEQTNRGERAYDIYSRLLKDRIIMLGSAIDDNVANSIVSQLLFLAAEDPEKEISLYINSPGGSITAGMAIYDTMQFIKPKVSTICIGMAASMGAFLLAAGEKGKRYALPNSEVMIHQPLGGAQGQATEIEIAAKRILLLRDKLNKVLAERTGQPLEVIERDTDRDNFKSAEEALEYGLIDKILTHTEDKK
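ClpP 10 microg/mL final, pH 8 Tris/KCl buffer with BSA, glycerol, Tween-20; compound pinned in; FRET-FV substrate; RT 20 min; Ex320/Em430; ΔFRET vs ADEP 5.8 microM, DMSO, no enzyme.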
* = called active by the depositor; ? = inconclusive; · = not tested or not shown; [ ] = another dose, or the depositor's remark. No enrichment for hits; overall some 5.1% were active at least once.

entry | canonical_smiles | PINK1 expr mod | gsp antagonist | gsp ag | Menin-MLL FL inh | Sfp inh | D2 ag | ClpP mod
1 | O=C(Nc1cc(Oc2ccc(Cl)cc2)cc([N+](=O)[O-])c1)c1ccco1 | ? | 1.7% | 6.6% | 4.6 | -18.6% | 0.5 | -2.7%
2 | Cc1noc(C)c1NC(=O)N(C)C[C@H]1Oc2c(NC(=O)NC(C)C)cccc2C(=O)N([C@H](C)CO)C[C@@H]1C | 2.7% | 5.0% | · | · | · | -2.4 | -0.9%
3 | CCC1CCCCN1C(=O)CSc1nc2c(c(=O)n(C)c(=O)n2C)n1C (centres undefined) | -1.2% | -1.4% | 42.8% | -3.4 | -3.4% | 4.8 | ·
4 | CCOC(=O)c1cc2c(C(F)(F)F)cc(-c3ccccc3)nc2o1 | ? | 5.6% | -19.0% | -0.5 | 9.8% | -4.0 | ?
5 | COc1ccc(OCC(=O)N2CCCC(CO)(CCOc3ccccc3)C2)cc1 (centres undefined) | -0.4% | -11.3% | 12.0% | · | 3.4% | 5.7 | -3.3%
6 | OC1(c2cccc(F)c2)CCN(Cc2ccncc2)CC1 | 0.2% | 15.4% | -18.8% | 1.3 | 10.4% | -2.6 | -3.7%
7 | O=C(COc1cccc(Cl)c1)NCc1ccccc1 | 3.5% | 10.8% | -15.0% | 1.3 | 10.0% | 1.8 | ·
8 | COc1ccccc1N1CCN(C(=O)C(=O)N/N=C/c2ccccc2F)CC1 | 1.4% | -4.3% | -4.2% | 3.5 | 14.5% | -6.7 | 1.9%
9 | C=CCNC(=S)Nc1ccc(F)cc1F | 1.5% | 6.3% | -86.1%[inhibitor] | 1.6 | 9.8% | -2.7 | 1.6%
10 | CCS(=O)(=O)N1CCN(C(=O)c2cccc3ccccc23)CC1 | -0.1% | 6.0% | 0.2%[15.4 µM] | 3.2 | 7.2% | ? | -0.9%
11 | CC(C)Cn1c(-c2ccc(C#N)cc2)nc2c1c(=O)[nH]c(=O)n2CC(C)C | -0.6% | -0.3% | 22.3% | 1.6 | 12.8% | 2.6 | 9.8%
12 | O=C(Nc1ccc(N2CCOCC2)cc1)C1=NN(c2ccccc2)C(=O)CC1 | 1.5% | -7.7% | 15.8% | · | · | -4.8 | ?
13 | COc1ccc(NC(=O)c2cc(F)cc(F)c2)cc1Cl | 1.6% | -0.9% | 1.3% | 3.5 | 18.4% | -0.7 | -0.9%
14 | Cc1sc2ncn(-n3c(C)ccc3C)c(=O)c2c1C | -0.3% | 0.7% | -16.3% | -0.4 | -2.4% | -3.6 | -28.5%
15 | C=CCN(CC=C)S(=O)(=O)c1ccc(C(=O)Nc2nc3c(s2)CCc2ccccc2-3)cc1 | 2.6% | 1.1% | 26.0%[15.4 µM] | 6.1 | 13.4% | 6.4 | -8.1%
16 | Cc1cccc(OC2CCN(Cc3nc(CC4CC4)no3)CC2)c1 | 0.2% | 2.2% | 5.7% | -3.6 | 17.6% | -3.8 | -1.8%
17 | COc1cc(NC(=O)COC(=O)CO/N=C(\C)c2ccc3c(c2)OCO3)cc(OC)c1OC | 4.2% | -13.9% | -32.5%[inhibitor] | · | · | -1.7 | 1.8%
18 | CCN(Cc1ccncc1)C(=O)CCc1ccccc1 | -1.7% | 1.0% | -4.5%[15.4 µM] | 6.2 | -4.9% | -2.9 | -2.0%
19 | COc1cccc(CN2CCNC(=O)C2CC(=O)N(C)Cc2cnccn2)c1OC (centres undefined) | -1.1% | -8.6% | -10.4%[15.4 µM] | -3.9 | 15.0% | -1.2 | ·
20 | CCCCNC(=O)c1cn(-c2ccc(OCC)cc2)c(=O)c2cc(OC)c(OC)cc12 | 0.6% | -5.3% | -9.2% | -2.9 | 5.5% | -1.4 | -11.1%
21 | COC(=O)CN(c1ccc2c(c1)OCO2)S(C)(=O)=O | -0.2% | 7.7% | 4.9% | -0.3 | 7.6% | -0.2 | -2.2%
22 | CN(C)c1cc(-c2ccccc2)nc(-c2ccccc2)n1 | 9.5% | 6.9% | -15.6% | 0.5 | 14.4% | -2.5 | ·
23 | C=Cn1cc(CNC[C@H]2O[C@@H](n3cc(C)c(=O)[nH]c3=O)C[C@@H]2O)c(C)n1 | 0.2% | · | -17.7% | · | · | 1.0 | -1.9%
24 | COc1ccc(C2=NO[C@@](CC(=O)O)(C(=O)Nc3ccc4c(c3)OCCO4)C2)cc1 | 2.2% | 5.4% | -18.6% | -5.0 | 1.7% | 0.7 | ·
25 | O=C1NC(=O)C2(CCc3ccccc32)N1 (centres undefined) | 1.0% | 1.7% | ? | 0.7 | -3.1% | -1.0 | -1.2%
26 | O=C(O)c1ccc(Nc2nc(-c3cccnc3)cs2)cc1 | 2.4% | -12.9% | -7.2%[15.4 µM] | -1.9 | 89.1µM* | -4.6 | -1.9%
27 | CCc1nnc(SCCSc2nnc(CC)n2N)n1N | -1.4% | 17.4% | 2.1% | 8.8 | 9.4% | 0.3 | -2.4%
28 | Cc1ccc(S(=O)(=O)/C(C#N)=C/c2c[nH]c3ccccc23)cc1 | 1.2%[38.3 µM] | -2.2% | 15.3% | 3.2 | 8.4% | 3.8 | -2.5%
29 | CC(C)CCn1c(NCCN(C)C)nc2c1c(=O)[nH]c(=O)n2C | 2.1% | 2.5% | -2.6% | -4.1 | 7.6% | -2.3 | -2.1%
30 | COC(=O)COc1ccc(S(=O)(=O)N2CCOCC2)cc1C | 0.3%[38.3 µM] | 4.3% | -0.1% | 2.1 | 6.5% | -1.3 | -2.4%
31 | CCn1cc(C(=O)NCCCOC)c(=O)c2cc(S(=O)(=O)N3CCC(C)CC3)ccc21 | 1.8% | -9.3% | -22.0% | -2.0 | 8.2% | -0.7 | ·
32 | Cc1c(-c2ccccc2)oc2c(C(=O)OCC(=O)Nc3cccc(F)c3)cccc2c1=O | 4.1% | 3.3% | 9.6% | ? | 7.6% | -1.7 | 1.6%
33 | COc1ccccc1CNC(=O)c1cc2sccc2n1C | 3.2%[38.3 µM] | -12.9% | -2.6% | -0.1 | -7.7% | -1.1 | 0.6%

Six entries picked at random from those above:
entry | canonical_smiles | PINK1 expr mod | gsp antagonist | gsp ag | Menin-MLL FL inh | Sfp inh | D2 ag | ClpP mod
22 | CN(C)c1cc(-c2ccccc2)nc(-c2ccccc2)n1 | 9.5% | 6.9% | -15.6% | 0.5 | 14.4% | -2.5 | ·
31 | CCn1cc(C(=O)NCCCOC)c(=O)c2cc(S(=O)(=O)N3CCC(C)CC3)ccc21 | 1.8% | -9.3% | -22.0% | -2.0 | 8.2% | -0.7 | ·
32 | Cc1c(-c2ccccc2)oc2c(C(=O)OCC(=O)Nc3cccc(F)c3)cccc2c1=O | 4.1% | 3.3% | 9.6% | ? | 7.6% | -1.7 | 1.6%
20 | CCCCNC(=O)c1cn(-c2ccc(OCC)cc2)c(=O)c2cc(OC)c(OC)cc12 | 0.6% | -5.3% | -9.2% | -2.9 | 5.5% | -1.4 | -11.1%
11 | CC(C)Cn1c(-c2ccc(C#N)cc2)nc2c1c(=O)[nH]c(=O)n2CC(C)C | -0.6% | -0.3% | 22.3% | 1.6 | 12.8% | 2.6 | 9.8%
21 | COC(=O)CN(c1ccc2c(c1)OCO2)S(C)(=O)=O | -0.2% | 7.7% | 4.9% | -0.3 | 7.6% | -0.2 | -2.2%

Compound activity deposited in PubChem by National Center for Advancing Translational Sciences (NCATS).
